Mtb bLac sens = beta-lactam sensitization of Mtb H37Rv; M. tuberculosis H37Rv growth with meropenem, percent inhibition; hits of this screen are not shown here; inhibition, % at 25 µM; AID 434955; hit rate 0.27% among 330,000;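 active = about 74% or more and at least 40 points above the plate without the antibiotic, then above 30% in a dose series; inconclusive = first-round hits that could not be retested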;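 note: growth measured after seven days incubation then overnight dye step; 0% = bacteria only wells and 100% = bacteria with antibiotic; twin plates without the antibiotic show which effects depend on it; some results filed as inactive read as strong as hits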
RecA intein inh = blocks M. tuberculosis RecA intein splicing; cell-free RecA intein splicing, fluorescence; inhibition, %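 (about 9 µM by stock and volumes)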; hit rate 0.75% among 290,000; P9WHJ3; in the data active = inhibition above about 30%; inconclusive = no clear call, values can overlap the other calls;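 note: 0% = vehicle wells and 100% = reference inhibitor control wells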
Target sequence (P9WHJ3 whole entry, looked up): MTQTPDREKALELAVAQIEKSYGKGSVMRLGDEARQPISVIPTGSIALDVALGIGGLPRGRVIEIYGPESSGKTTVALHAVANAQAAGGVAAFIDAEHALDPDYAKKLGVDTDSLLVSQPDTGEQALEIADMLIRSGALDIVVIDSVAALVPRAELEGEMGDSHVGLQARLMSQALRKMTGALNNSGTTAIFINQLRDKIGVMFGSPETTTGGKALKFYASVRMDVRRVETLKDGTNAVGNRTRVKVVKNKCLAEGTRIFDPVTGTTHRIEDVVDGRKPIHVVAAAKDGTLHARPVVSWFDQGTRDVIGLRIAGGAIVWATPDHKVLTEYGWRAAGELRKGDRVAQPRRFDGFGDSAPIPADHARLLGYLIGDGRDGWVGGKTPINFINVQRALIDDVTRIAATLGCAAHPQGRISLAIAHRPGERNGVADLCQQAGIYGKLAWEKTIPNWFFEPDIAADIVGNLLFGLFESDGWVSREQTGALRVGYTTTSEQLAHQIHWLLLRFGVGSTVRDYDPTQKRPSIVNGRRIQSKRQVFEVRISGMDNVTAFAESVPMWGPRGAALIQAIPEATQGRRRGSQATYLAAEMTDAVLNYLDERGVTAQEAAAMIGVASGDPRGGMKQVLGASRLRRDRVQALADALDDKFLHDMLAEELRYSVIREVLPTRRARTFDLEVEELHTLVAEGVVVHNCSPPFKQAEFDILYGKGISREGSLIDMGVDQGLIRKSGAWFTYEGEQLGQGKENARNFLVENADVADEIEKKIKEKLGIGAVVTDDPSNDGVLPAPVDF
Arbovirus anti = arbovirus infection inhibition. inhibition, % at 10 µM. AID 1251. hit rate 0.37% among 200,000. arbovirus infection cell-based antiviral screen;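 active = inhibition from about 30%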;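 note: bluetongue infection of BSR cells; cell survival read as ATP light after 72 h; 0% = infected wells without compound and 100% = uninfected wells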
YopH PTP inh = YopH (Yersinia) phosphatase inhibition; fluorescence Ex485/Em525; inhibition, %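 (about 10 µM by stock and volumes)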; hit rate 0.16% among 140,000;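 active = inhibition of 50% or more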;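 note: controls were vehicle for no effect and minimum signal wells for full effect; inactives centre near -20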
Mtb H37Rv = M. tuberculosis H37Rv growth inhibitors, H37Rv strain (AID 1626); M. tuberculosis H37Rv growth inhibition; higher % means a stronger effect; inhibition, % at 10 µM, or IC50 in µM where a hit was titrated; hit rate 0.95% among 220,000;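 active = confirmed in a dose series; inconclusive = inhibition above 80% but not taken into the dose series; inactive = below 80% or under 30% at every dose of the series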;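 note: bacteria incubated seven days before Alamar blue readout; 0% = bacteria only wells and 100% = bacteria with antibiotic wells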
Arbovirus anti repeat = further read-out of Arbovirus anti, marked with its call; inhibition, %; measured here: 10K subset replicate screen; many hits read low in the repeat;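 first of two repeat runs on a subset; 0% = infected and 100% = uninfected wells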
Numbers without * were called inactive; u = inconclusive; x = no result given.

SMILES	Mtb bLac sens	RecA intein inh	Arbovirus anti	YopH PTP inh	Mtb H37Rv	others
Cc1ccc(-c2cc(-c3ccccc3Cl)[nH]n2)c(O)c1	98.0	14.5	-40.1	-22.8	60.2%
CC1(C)SC2c3ccccc3C(=O)N2[C@@H]1C(=O)NC1CCCC1 (stereo not given in full)	-3.0	-2.4	x	x	x
Cc1nnsc1C(=O)NC(=O)Nc1ccc(F)c(Cl)c1	0.0	1.9	x	x	-3.0%
CN(C)c1ccc(P(=O)(OC2CCCCC2)C(Nc2ccccc2)c2cccnc2)cc1 (stereo not given)	2.1	-5.9	x	x	4.0%
O=C(OCC(=O)N1CCCc2ccccc21)c1ccccc1NCCO	-8.9	-6.2	x	x	x
N/C(=N\OS(=O)(=O)c1ccccc1)c1ccccn1	5.8	-2.0	-10.9	-15.6	-2.1%
CCCCn1nnnc1NCc1cc(Cl)c(OC)c(OC)c1	-1.2	6.6	3.4	x	-3.0%
O=C(Nc1ccccc1F)C1COc2ccccc2O1 (stereo not given)	6.4	0.8	x	x	x
CN(C)/C=c1\sc2c(C#N)cc(C(=O)c3ccc(Br)cc3)n2c1=O	-11.8	-1.1	-11.9	-12.7	3.8%
COc1ccc(CN2C(=O)NC(=O)/C(=C/c3cc(OC)c(OC)c(OC)c3)C2=O)cc1	-1.1	-4.5	x	x	-3.1%
Cc1cc(NC(=O)CSc2nnc(-c3ccc(Cl)s3)o2)no1	90.2	0.7	-9.0	30.9	5.6%
Cc1cc(C(=O)OCC(=O)Nc2cccc(S(=O)(=O)N3CCOCC3)c2)c(C)o1	8.4	0.7	4.4	-28.6	5.6%
CCOC(=O)CSc1nc(-c2ccccc2)nc2ccccc12	14.4	3.4	-1.5	-31.1	-6.3%
CCOC(=O)C1=C(C)Nc2nc(C)nn2C1c1cc(OC)ccc1OC (stereo not given)	-1.4	-0.5	1.9	-33.8	-12.4%	Arbovirus anti repeat=4.9
CC(NC(=O)OCc1ccccc1)c1ccccc1 (stereo not given)	3.1	6.0	x	x	x
CCn1c(SCC(=O)c2ccc3ccccc3c2)nnc1-c1cccs1	-1.1	-0.8	-1.7	-182.7	3.6%
Cc1ccc(Cn2c(Cc3ccccc3)nc3ccccc32)cc1	18.8	6.2	-38.7	-29.9	9.1%
Cn1c(CNc2nc(-c3ccccc3)cs2)nnc1SCC(=O)OC1CCCCC1	98.1	3.5	-1.0	-7.0	71.9%
O=C(COC(=O)CCOc1ccccc1)NCCC1=CCCCC1	-4.3	3.2	6.0	x	3.4%
Cn1c(=O)[nH]c(=O)c2c1nc1n2CCCS1	4.2	0.0	-2.2	-7.7	-4.4%
COCCn1c(=O)c2c(nc3n2CC(C)CN3Cc2ccccc2)n(C)c1=O (stereo not given)	-0.5	-1.9	x	x	x
CC1CCN(c2c(NCC3CCC(C(=O)NCc4ccc(F)cc4)CC3)c(=O)c2=O)CC1 (stereo not given)	-0.6	-1.3	x	x	-7.2%
Cc1onc(-c2ccccc2Cl)c1C(=O)Nc1sc2c(c1C(N)=O)CCC(C)C2 (stereo not given)	9.4	3.8	-18.5	31.0	x
Cn1c(=O)c2c(nc(Oc3ccccc3N)n2C)n(C)c1=O	1.7	-3.4	x	x	x
COc1ccc(CC(NC(C)=O)C(=O)NC2CCN(C(=O)C3CCCCC3)CC2)c(OC)c1 (stereo not given)	-8.8	-0.5	x	x	x
Additional entries.
SMILES	Mtb bLac sens	RecA intein inh	Arbovirus anti	YopH PTP inh	Mtb H37Rv	others
Cc1ccc(C(=O)Nc2ccc3c(c2)OCO3)cc1S(=O)(=O)N1CCCC1	21.5	-3.4	-7.2	5.7	4.7%
O=C(CSc1nc2ccccc2s1)N1CCN(C(=O)c2ccco2)CC1	-14.8	0.1	4.4	24.9	-6.0%
O=C(Nc1ccc(Br)cc1)c1cnc[nH]1	4.3	-1.8	x	x	x
CCOc1ccc2nc(N3CCC(C(=O)NC4CCCCC4)CC3)sc2c1	81.7	-1.0	x	x	x
CC(=O)c1sc(NC(=O)c2ccc3c(c2)OCO3)nc1C	-4.0	-0.8	x	x	x
COc1cc(C(=O)NCc2nnc(SCC(=O)N3CCCCCC3)o2)cc(OC)c1OC	-5.3	-7.9	x	x	x
COc1ccc(-c2c(C)nn3c(N4CCC5(CC4)OCCO5)cc(C)nc23)cc1OC	-2.0	0.3	-4.8	-4.1	-10.8%
COC(=O)C1=C(C)Nc2[nH]c(=S)[nH]c(=O)c2C1c1ccc(OC)cc1 (stereo not given)	-1.8	3.8	6.5	x	-2.0%
Cc1ccc(C(=O)c2ccc(C)cc2)cc1	-3.9	-0.4	-0.4	x	-0.9%
COc1cc(OC)cc(-n2nnnc2SCC(=O)NCCc2ccc(OC)c(OC)c2)c1	7.3	0.8	4.4	x	2.2%
CN(c1ccc(S(=O)(=O)N2CCOCC2)cn1)C1CCCCC1	3.0	2.1	2.8	-1.2	2.4%
C=C(C)C1CC=C(C)/C(=N/NC(=O)COc2cccc3ccccc23)C1 (stereo not given)	-1.7	-1.3	-11.8	-33.3	-1.2%
N#Cc1ccc(NC(=O)CN2CCCCCC2)cc1Cl	-4.7	-1.0	x	x	x
CCc1cccc(NC(=O)Nc2ccc3c(c2)OCO3)c1	1.5	-0.7	-16.2	x	1.9%
COc1ccc(-c2ccnc(SCC(=O)c3ccc(OC)c(OC)c3)n2)cc1	-4.6	-3.2	-19.1	-13.1	-3.8%
COCCNS(=O)(=O)c1cc(F)ccc1OC	-2.4	-0.2	5.2	-18.1	-1.2%
CN1CCN(C(=O)c2ccc(COc3cc(Cl)ccc3Cl)o2)CC1	-8.3	-1.0	x	x	x
O=C(COc1ncnc2ccccc12)NCCc1ccc(F)cc1	-5.1	0.9	10.5	x	-2.7%
Cc1cc(/C=C(\C#N)C(=O)NCc2ccccc2)cc(C)c1O	-10.4	0.7	x	x	x
O=C(O)CCCCCn1c(SCc2cc(=O)n3ccccc3n2)nc2ccsc2c1=O	-5.8	-1.1	4.3	-34.8	-2.5%
CCC(=O)Nc1ccccc1C(=O)OC(c1ccccc1)c1ccccc1	0.0	12.6	5.5	-28.2	6.8%
N#CC1=C(N)C(C#N)(C#N)C2(CCC3(CC2)OCCO3)C2CC3(CC=C12)OCCO3 (stereo not given)	1.1	-5.0	6.8	-28.6	-7.3%
Cc1ccc(CN2C(=O)CSc3ccc(C(=O)NC4CC4)cc32)cc1	-1.6	-0.2	x	x	x
CCCC(=O)c1cc(F)c(N2CCN(S(=O)(=O)c3ccccc3)CC2)cc1C	-8.1	0.0	2.3	7.6	6.3%	Arbovirus anti repeat=-2.3
O=C(O)C1CCCCC1C(=O)NCCC(c1ccccc1)c1ccccc1 (stereo not given)	-22.8	1.5	8.7	-6.0	-4.8%
Later entries.
SMILES	Mtb bLac sens	RecA intein inh	Arbovirus anti	YopH PTP inh	Mtb H37Rv	others
Cc1ccc(-c2nc3ccccc3s2)cc1S(=O)(=O)N1CCOCC1	-12.1	0.0	0.7	7.4	5.0%
Cc1cc2c(cc1C)CSC(c1c(O)ccc3ccccc13)SC2	96.6	0.4	-45.7	-25.0	-1.1%
O=C(CSc1nc2ccccc2c(=O)[nH]1)N1CCOCC1	6.2	-3.0	2.6	-35.4	2.2%
CC(C)(C)NC(=O)NC(=O)COc1ccccc1C#N	u	-1.6	-6.3	15.0	-4.7%
O=C(OCc1ccc(C(=O)c2ccccc2)cc1)c1cccc(-c2nnc(-c3ccccc3)o2)c1	84.6	-6.1	6.8	-48.2	20.2%
Cc1ccc2ccc(C3C(=O)c4ccccc4C3=O)nc2c1	6.8	0.0	x	-24.0	-1.9%
COc1ccc(CCNC(=O)CN(C2CCCCC2)S(C)(=O)=O)cc1OC	1.0	-0.2	7.6	-46.0	-0.6%
CN(C)S(=O)(=O)c1ccc(C(=O)NCC[N+]2(C)CCCCCC2)o1	0.8	-1.9	x	x	x
O=C(CSc1nc2ccccc2o1)NCC1CCCO1 (stereo not given)	-10.3	0.4	x	x	x
COc1ccc(-c2nc(-c3ccccn3)no2)cc1	-2.1	-2.7	-23.5	x	-0.8%
CC(C)C1NC(=S)N(C2CCCCC2)C1=O (stereo not given)	1.8	0.5	6.0	-28.2	-0.6%
CCN1CCN(C(=S)c2ccc(OCC(=O)N3CCOCC3)cc2)CC1	2.5	-13.1	-0.3	-26.2	-5.1%
Cc1ccc(/C=C/C(=O)c2nc3ccccc3[nH]2)cc1	91.6	-6.4	15.9	1.0	0.4%
N#CC1=C2SCN(Cc3ccco3)CN2C(=O)CC1c1ccc(Cl)cc1 (stereo not given)	-7.4	6.7	12.6	-24.0	1.5%
Cc1cccc(NC(=O)CC(=O)Nc2cccc(C)c2)c1	3.7	3.3	x	x	x
CCn1c(SCC(=O)Nc2nnc(C)s2)nnc1-c1ccncc1	32.5	-0.5	-0.1	34.1	-9.2%
Cc1ccc(OCCCC(=O)Nc2nnc(C3CCCO3)s2)c(C)c1 (stereo not given)	-1.2	-1.0	8.3	x	-9.1%
Cc1ccc(S(=O)(=O)N2CCN(S(C)(=O)=O)C2)cc1	5.3	-1.2	10.7	-27.5	-6.9%
Cc1cccc(-n2c(-c3ccco3)nc3ccccc3c2=O)c1C	10.2	7.2	5.5	x	3.9%
CCN(CC(=O)Nc1cc(S(=O)(=O)N2CCCCC2)ccc1C)Cc1ccccc1	0.4	9.3	x	x	x
S=C1COC(c2ccccc2)N1c1ccccc1 (stereo not given)	0.3	2.9	-1.2	-25.8	-12.6%
Cc1ccc(CN2CCN(/N=C/c3ccc(C(=O)O)cc3)CC2)cc1	-10.9	-0.2	2.5	-5.8	u
CCOc1ccccc1C1C(C(N)=O)=C(C)Nc2nc(-c3ccc(OC)cc3)nn21 (stereo not given)	-0.6	-2.4	-4.8	-53.7	-7.2%
COc1ccc(-c2cn(-c3ccc(C)cc3C)c(=O)[nH]2)cc1OC	-0.8	-2.8	10.3	x	2.5%
CCOC(=O)c1cc(-c2csc(-c3ccc(C(C)(C)C)cc3)n2)on1	99.8	-0.2	x	x	u
Next part
SMILES	Mtb bLac sens	RecA intein inh	Arbovirus anti	YopH PTP inh	Mtb H37Rv	others
COC(=O)c1ccccc1NC(=O)CSc1nc2c(c(=O)[nH]1)CCC2	5.7	-0.5	x	x	x
O=C(O)c1ccc(C(=O)Nc2cccc(NC(=O)C3CCCO3)c2)cc1 (stereo not given)	-16.9	-1.2	4.3	6.5	0.5%
O=C(O)CCCC(=O)N1CCOCCOCCOCCOCC1	-0.6	-0.3	x	x	x
O=C(COc1ccc2ccccc2c1)NC1=NCCS1	-1.3	3.5	3.2	-19.7	6.5%
CCC(c1nc2ccccc2c(=O)n1-c1nc2ccccc2s1)N1C(=O)c2ccccc2C1=O (stereo not given)	7.7	0.9	3.0	-25.4	4.3%
CC(=O)OC1CC2(C)C(=O)CCC2C2CCc3cc(O)ccc3C12 (stereo not given)	3.0	-3.1	-0.8	-6.1	-8.3%
Cn1c(-c2ccc(Br)cc2)cnc1NCc1ccc(C#N)cc1	-1.8	4.6	x	x	x
COCCn1cnc2c1c(=O)n(CC(=O)O)c(=O)n2Cc1ccccc1	0.4	0.1	x	x	x
CCCCOc1ccc(C(=O)NCc2ccccn2)cc1	-1.0	-4.3	-4.2	-37.2	3.6%
Cc1cc(C)c(C#N)c(SCCS(=O)(=O)c2ccc(Cl)cc2)n1	-1.6	6.0	x	x	x
CCCCCCn1c(O)c(C(C)=NC)c(=O)[nH]c1=O	-0.7	0.1	5.5	-0.7	0.5%
CCn1c(SCC(=O)Nc2nc(-c3ccc(C)cc3)cs2)nnc1-c1ccccc1	-11.7	5.3	8.1	-3.4	-4.0%
CC(C(Sc1ccccc1N)c1ccccc1)[N+](=O)[O-] (stereo not given)	98.9	-2.2	x	x	1.7%
COC(=O)C1=C(C)N(C)C(C)=C(C(=O)OC)C1c1ccsc1	63.6	7.9	-0.6	-19.5	-3.6%	Arbovirus anti repeat=2.4
Cc1ccccc1C(=O)Nc1ccnn1C1CCN(C(=O)c2cnsn2)CC1	-1.9	1.0	x	x	x
CC1CCCCN1C(=O)Cn1cc(C=C2C(=O)N(C)C(=O)N(C)C2=O)c2ccccc21 (stereo not given)	-8.6	-0.4	x	x	x
CC(C)(C)OC(=O)NCCCC[C@H](NC(=O)[C@H](Cc1c[nH]c2ccccc12)NC(=O)OCc1ccccc1)C(=O)O	u	0.1	x	x	x
Cc1ccc(NCN2C(=O)C3C4CCC(C4)C3C2=O)cc1 (stereo not given)	-3.0	0.1	-3.1	8.6	-0.1%
Cc1cccnc1NC(=O)c1ccccc1-c1ccccc1C(=O)Nc1ncccc1C	1.3	-2.0	12.3	-22.8	-2.7%

The list is partial. The share of hits here may be higher or lower than overall.
